PKD1 inh: PKD1 (human) kinase inhibition; Q15139; PKD1 kinase fluorescence polarization assay; inhibition, %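 (about 10 µM by stock and volumes)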; 200,000 compounds, 0.056% hits; AID 797;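 active means inhibition of 50% or more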;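 further: controls were vehicle for no effect and a reference inhibitor for full effect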
RGS16-Gao HTS: RGS16-Galphao interaction regulator (human); O15492+P09471; bead-based flow cytometry RGS16-Galphao binding, fluorescence; actives lie on both sides; binding response (% of control), % at 10 µM; 220,000 compounds, 0.38% hits;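 active means below 25% or above 175%, edge rows of some plates excepted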;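 further: Galphao activated by GDP with aluminum fluoride before binding; 100% = wells without compound and 0% = beads without RGS; some results beyond the cut were filed as inactive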
Target sequence (O15492 whole entry, looked up): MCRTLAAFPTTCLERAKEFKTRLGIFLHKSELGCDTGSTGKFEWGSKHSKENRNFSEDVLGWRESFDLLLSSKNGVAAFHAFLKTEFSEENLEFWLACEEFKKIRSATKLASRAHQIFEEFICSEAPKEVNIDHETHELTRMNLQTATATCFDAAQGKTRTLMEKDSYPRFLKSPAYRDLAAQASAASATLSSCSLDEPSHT
Target sequence (P09471 whole entry, looked up): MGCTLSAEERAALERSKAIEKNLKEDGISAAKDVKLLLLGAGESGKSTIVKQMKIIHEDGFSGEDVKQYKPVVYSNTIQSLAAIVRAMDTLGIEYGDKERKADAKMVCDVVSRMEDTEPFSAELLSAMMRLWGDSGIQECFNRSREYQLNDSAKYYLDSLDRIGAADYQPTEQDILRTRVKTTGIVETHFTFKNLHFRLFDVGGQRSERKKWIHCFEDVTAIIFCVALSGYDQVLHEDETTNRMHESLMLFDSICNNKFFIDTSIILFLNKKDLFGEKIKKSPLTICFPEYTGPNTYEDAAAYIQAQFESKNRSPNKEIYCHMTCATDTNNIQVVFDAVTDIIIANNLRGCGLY
HSV augment: HSV replication enhancement; HSV replication augmentation in cells, fold increase; 220,000 compounds, 0.005% hits; maximum fold increase;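 active means peak rise of 1.5-fold or more in the series; inconclusive means self-fluorescent or not available for retest; tested in PC3 cells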;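 further: first round at 10 µM; read as green reporter fluorescence; hits show the peak of a series up to 25 µM; 1 = signal of infected wells without compound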
INS promoter inh: TRM-6 insulin promoter activity inhibition; TRM-6 cells (human fetal islet line), insulin promoter-eGFP reporter, imaging; reporter expression induced with tamoxifen; inhibition, % at 2 µM; 130,000 compounds, 0.9% hits;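 active means inhibition above the mean plus 3 SD, with well images judged a real hit on visual review, cut at about 60% in these data, passing the limit was not always enough; inconclusive means inhibition over the cutoff but images rejected on review; inactive means inhibition not above the cutoff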
GALR2 ag: activates the human galanin receptor 2; 140,000 compounds, 0.48% hits; GALR2-expressing cells, agonist activation read-out; O43603; AID 803; activation, %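 (tested at 5 µM)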;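 active means above mean plus 3 SD of all compounds, about 5% in these data, not always enough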;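 further: 0% = vehicle buffer wells and 100% = reference agonist at full effect; tested in CHO reporter cells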
Target sequence (O43603 whole entry, looked up): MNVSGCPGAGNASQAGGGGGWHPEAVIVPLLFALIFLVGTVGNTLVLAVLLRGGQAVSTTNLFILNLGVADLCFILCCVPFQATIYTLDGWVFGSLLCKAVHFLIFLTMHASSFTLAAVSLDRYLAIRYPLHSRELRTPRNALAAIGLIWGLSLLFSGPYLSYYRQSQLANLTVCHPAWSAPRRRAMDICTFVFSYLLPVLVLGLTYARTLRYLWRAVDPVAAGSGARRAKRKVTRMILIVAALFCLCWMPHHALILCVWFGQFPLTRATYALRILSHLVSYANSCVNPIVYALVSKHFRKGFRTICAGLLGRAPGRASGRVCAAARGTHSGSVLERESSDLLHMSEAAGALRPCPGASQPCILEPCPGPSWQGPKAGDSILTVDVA
INS promoter inh cell count: recorded beside INS promoter inh, whose call it bears; normalized cell count, %; measured here: cell count, toxicity; reference of the scale not given here;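 cells exposed to compound for 48 h; stained nuclei by imaging scaled within each plate; lower means fewer cells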
HSV augment primary fold: second read-out of HSV augment, no call of its own (marks repeat the call); fold increase; compound at 10 µM; measured here: primary screen fold increase 10 uM; tested in PC3 cells;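 GFP signal in the first replicate; 1 = infected wells without compound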
Numbers without * were called inactive; i = inactive; u = inconclusive; x = not tested or not shown.

structure,PKD1 inh,RGS16-Gao HTS,INS promoter inh,HSV augment,HSV augment primary fold,INS promoter inh cell count,GALR2 ag
O=C(COC(=O)c1n[nH]c(=O)c2ccccc12)c1ccccc1,-9,97,27,i,1,83,-2.2
FC(F)Oc1ccc(/C=N/N2CCCCC2)c(OC(F)F)c1,0,97,x,i,0.99,x,x
C=CCN1C(=NC(=O)CCC(=O)O)SC2CS(=O)(=O)CC21 (centres undefined),17,100,-12,i,0.99,97,-3.3
Cc1ccc(S(=O)(=O)NCC2NCCc3ccccc32)cc1 (centres undefined),-1,114,0,i,1.1,54,x
CSc1ccc(C2CC(=O)Nc3nc(SC)[nH]c(=O)c32)cc1 (centres undefined),-9,121,-8,i,0.85,107,x
Cc1ccc(CNC(=O)Nc2cccs2)cc1,-5,84,12,i,1.1,69,-0.9
CCC(C)(C)n1nnnc1C(c1ccc(O)c(OC)c1)N1CCN(c2nc3ccccc3s2)CC1 (centres undefined),7,94,x,i,0.83,x,-0.5
Cn1cccc1C(=O)NC(=O)CSc1nc2ccccc2s1,-15,99,36,i,0.91,167,-1.2
Cc1ccc(C(=O)c2cc(C)sc2N)cc1,2,109,x,i,0.99,x,x
COc1cc(C2OC(c3cc(OC)c(OC)c(OC)c3)C(C)C2C)cc(OC)c1OC (centres undefined),-1,96,x,i,1,x,x
Cc1ccc(NC(=O)C(=O)NCc2ccc(/C=N/NC(=O)c3c(C)nc4cc(C)ccn34)o2)cc1,-3,102,x,i,1,x,-0.6
C=CCn1c(O)c(N=NC(=O)CNC(=O)c2ccco2)c2ccccc21,0,98,22,i,0.57,112,1.0
Cc1ccc(Sc2nnc(Cc3ccccc3)c3ccccc23)cc1,23,98,28,i,1.2,82,-2.3
CC(=O)Oc1ccc(N2C(=O)[C@@H]3[C@H](C2=O)[C@H]2c4ccccc4C=NN2[C@@H]3C(C)=O)cc1,x,99,x,i,1,x,x
O=C(NCCCN1CCOCC1)C(C(=O)c1ccccc1)n1ccccc1=O (centres undefined),-13,108,-27,i,0.85,88,-4.9
Cc1ccc(/C=N/NC(=O)c2cccnc2)o1,-3,99,0,i,0.94,96,x
O=C(COC(=O)Cc1cn2ccsc2n1)NCc1ccc2c(c1)OCO2,-4,98,-21,i,0.89,98,-3.1
COCCN1CCn2c(nc3cc([N+](=O)[O-])ccc32)C1,x,102,x,i,0.79,x,x
CCN(CC)S(=O)(=O)c1cc(NC(=O)CNc2c(C)n(C)n(-c3ccccc3)c2=O)ccc1C,-4,97,x,i,0.96,x,x
CCCCN1C(=O)Cc2c1nc(N)c1c(N)nc(N(CCC)CCC)c(C#N)c21,-16,99,x,x,x,x,0.6
O=C(NCCCn1ccnc1)c1noc2c1CCCC2,-6,103,x,i,0.93,x,-1.4
CN1CCN(c2ccccc2NC(=O)Cc2cn(C)c3ccccc23)CC1,-15,101,x,i,0.93,x,0.3
CC(C)OC(=O)c1nnc(-c2ccccc2)nc1OC(C)C,16,103,-22,i,0.93,74,-2.9
CCOC(=O)c1cnc2[nH]c3ccccc3n2c1=O,-3,113,x,i,0.96,x,x
Cn1cnnc1Sc1cc(N2CCN(S(=O)(=O)c3ccc(Cl)c(Cl)c3)CC2)ccc1[N+](=O)[O-],-5,95,46,i,0.98,96,-0.8
Cc1cc2c(=O)n(C)c(SCC(=O)c3cc4ccccc4o3)nc2s1,5,111,53,i,0.82,59,-1.4
CSc1ccccc1NC(=O)CN1CC(C)OC(C)C1 (centres undefined),4,96,x,i,1.1,x,x
O=C(O)/C=C/C(=O)OC1CC2CCC1C2 (centres undefined),x,100,x,i,0.94,x,x
Cc1cccc(NC2=C(Cl)C(=O)OC2NC(=O)c2ccccc2)c1 (centres undefined),-10,108,-23,i,0.93,111,-1.4
CC1CN(C(=O)c2ccccc2)c2ccccc2NC1=O (centres undefined),9,103,15,i,1.1,112,-3.0
CCS(=O)(=O)N1Cc2ccccc2CC1C(=O)Nc1nc2ccccc2[nH]1 (centres undefined),-7,101,x,i,0.99,x,-0.2
COc1ccccc1-n1nc(C(=O)Nc2ccc3c(c2)OCO3)c2ccccc2c1=O,-5,102,-35,i,0.91,130,-1.9
Cc1ccc(C#CC[N+](C)(C)CC#Cc2ccccc2)cc1,-2,103,x,i,0.93,x,x
Cn1c(C(=O)OC(C(=O)NC2CCCC2)c2ccncc2)cc2sccc21 (centres undefined),3,100,-9,i,0.66,77,-0.9
CCOC(=O)CNc1ccc(OC(F)(F)F)cc1,x,93,x,i,0.98,x,x
O=C(Nc1ccc2nn(-c3ccccc3)nc2c1)c1ccc(Br)o1,3,99,30,i,0.87,120,0.2
Cc1ccc2[nH]c(=O)c(CN(CCCN3CCOCC3)C(=O)Nc3ccc(Cl)cc3)cc2c1,-9,95,x,i,0.93,x,x
CCC1(C)C2(C#N)C(N)=NC(OC)(OC)C12C#N (centres undefined),-7,100,-17,i,0.95,143,0.4
Cc1ccc(S(=O)(=O)Nc2ccccc2CNc2ncc(Br)cc2Br)cc1,-6,101,-26,i,1,124,-0.4
O=C(CSc1ccsc1[N+](=O)[O-])NCCc1ccc(Cl)cc1,1,95,-4,i,0.94,86,-3.2
O=C(ONC1=NCCCCC1)c1cccc([N+](=O)[O-])c1,-5,100,-7,i,0.89,97,x
CN(C)Cc1nc2ccccc2c(=O)n1Cc1nc(C(C)(C)C)cs1,11,214,15,i,0.97,74,-1.2
Cc1ccc(SCc2ccc(C(=O)Nc3ccccc3Br)cc2)cc1,-5,64,x,i,0.96,x,0.2
Cc1cccc(Sc2c([N+](=O)[O-])ncn2C)n1,17,103,x,i,0.77,x,-2.1
CC(C)CCN1CCN(Cc2cccn2-c2nccs2)CC1CCO (centres undefined),-2,106,-30,i,0.98,92,x
Cc1c(Br)c([N+](=O)[O-])nn1CC(=O)Nc1ccccn1,-12,99,x,i,0.99,x,x
Cc1ccc(NC(=S)c2ccccc2)cc1,0,104,30,i,1,107,-0.7
Cc1ccc(C(=O)Nc2ccc3c(c2)OCO3)cc1,-1,91,-5,i,1.1,91,1.4
COCCN(C(=S)Nc1ccc(C)cc1)C(C)c1cccnc1 (centres undefined),4,97,x,i,0.71,x,x
O=C(NCc1ccc(F)cc1)C1Cc2ccccc2CN1C(=O)c1ccco1 (centres undefined),-9,98,-207,i,0.87,102,x

Reformatted: results already given.
The line under a structure holds: PKD1 inh, RGS16-Gao HTS, INS promoter inh, HSV augment, HSV augment primary fold, INS promoter inh cell count, GALR2 ag
Cc1cc2c(=O)n(C)c(SCC(=O)c3cc4ccccc4o3)nc2s1
    5, 111, 53, i, 0.82, 59, -1.4
CSc1ccccc1NC(=O)CN1CC(C)OC(C)C1 (centres undefined)
    4, 96, x, i, 1.1, x, x
O=C(O)/C=C/C(=O)OC1CC2CCC1C2 (centres undefined)
    x, 100, x, i, 0.94, x, x
Cc1cccc(NC2=C(Cl)C(=O)OC2NC(=O)c2ccccc2)c1 (centres undefined)
    -10, 108, -23, i, 0.93, 111, -1.4
CC1CN(C(=O)c2ccccc2)c2ccccc2NC1=O (centres undefined)
    9, 103, 15, i, 1.1, 112, -3.0
CCS(=O)(=O)N1Cc2ccccc2CC1C(=O)Nc1nc2ccccc2[nH]1 (centres undefined)
    -7, 101, x, i, 0.99, x, -0.2
COc1ccccc1-n1nc(C(=O)Nc2ccc3c(c2)OCO3)c2ccccc2c1=O
    -5, 102, -35, i, 0.91, 130, -1.9
Cc1ccc(C#CC[N+](C)(C)CC#Cc2ccccc2)cc1
    -2, 103, x, i, 0.93, x, x
Cn1c(C(=O)OC(C(=O)NC2CCCC2)c2ccncc2)cc2sccc21 (centres undefined)
    3, 100, -9, i, 0.66, 77, -0.9
CCOC(=O)CNc1ccc(OC(F)(F)F)cc1
    x, 93, x, i, 0.98, x, x
O=C(Nc1ccc2nn(-c3ccccc3)nc2c1)c1ccc(Br)o1
    3, 99, 30, i, 0.87, 120, 0.2

Other results.
structure,PKD1 inh,RGS16-Gao HTS,INS promoter inh,HSV augment,HSV augment primary fold,INS promoter inh cell count,GALR2 ag
Nc1ccccc1SCc1cn2cccnc2n1,-5,101,x,i,0.87,x,-2.4
CCOC(=O)N1CCN(C(=O)CSc2ccc(-c3cccnc3)nn2)CC1,-4,104,67,i,1,192,x
COc1cccc(C2CC(c3ccccc3)Nc3nc(N)nn32)c1 (centres undefined),-1,101,x,i,1.3,x,x
O=C(O)c1csc(-c2cccs2)n1,2,119,45,i,0.9,27,x
CCCCC(c1nnnn1CCOC)N1CCN(Cc2ccccc2)CC1 (centres undefined),3,92,0,i,0.96,78,-0.4
CCCCCn1c(SCC(=O)OC)nc2c1c(=O)[nH]c(=O)n2C,10,101,x,i,0.74,x,-2.1
Cc1ccc(C)c(NC(=O)c2cc(=O)c3ccccc3o2)c1,-5,102,17,i,0.9,126,0.2
O=c1cc(-c2ccccc2F)oc2ccccc12,2,94,-20,i,0.82,109,-0.6
O=C(Nc1ccccc1N1CCCCC1)c1cccs1,-4,106,-55,i,1,103,-3.4
O=C1N(Cc2cccnc2)C[C@@H]2C[C@@H](c3ccccc3C#Cc3ccccc3)N3CCC[C@@]123,-3,104,x,i,0.85,x,x
COCc1nnc(NC(=O)CCc2ccccc2)s1,-4,112,-114,i,0.84,56,-2.6
O=C(c1cc2nc(-c3ccco3)cc(C(F)(F)F)n2n1)N1CCN(Cc2ccccc2)CC1,11,106,25,i,0.73,67,0.4
O=[N+]([O-])c1ccccc1S(=O)(=O)NCc1ccc(F)cc1,-2,98,x,i,1.2,x,x
O=C(COc1ccccc1F)N1c2ccccc2CCc2ccccc21,-12,27,x,i,1.3,x,-1.1
O=C(O)c1ccc(Cl)c(S(=O)(=O)Nc2ccccc2N2CCOCC2)c1,-10,167,10,i,0.96,67,x
COc1ccccc1N1C(=N)S/C(=C\c2ccc(-c3ccccc3C(=O)O)o2)C1=O,-2,99,21,u,x,150,0.0
CCOC(=O)CSc1nc(-c2ccc(OC)cc2)ns1,-11,100,x,i,0.96,x,-1.4
CC(C)(C)n1nnnc1C(c1ccc(Cl)cc1)N1CCSCC1 (centres undefined),6,102,-475,i,1.1,64,-0.7
Cc1c(S(=O)(=O)N2CCN(c3ccccc3)CC2)c(=O)n(C)c(=O)n1C,x,104,x,i,0.99,x,x
COc1cccc(OCCCCSc2ncccn2)c1,-1,99,-15,i,0.96,85,-1.9
Cc1ccc(Nc2ccc(C(F)(F)F)cc2[N+](=O)[O-])cc1,-15,101,-7,i,0.97,65,-0.8
Cc1ccc(-n2sc3ccccc3c2=O)cc1,1,42,x,i,0.72,x,-1.3
N#CCC(=O)Nc1cc(C(F)(F)F)ccc1N1CCOCC1,0,99,-88,i,1.1,105,x
Cn1c(=O)n(C)c2cc(CN3C(=O)OC(C)(C)C3(C)O)ccc21 (centres undefined),2,117,43,i,0.9,83,-1.0
CC(=O)N1CC(c2ccccc2)C(c2ccc(Cl)cc2)=N1 (centres undefined),7,105,x,i,1.1,x,-0.8
COC(=O)c1ccc(COc2ccc(/C=N/O)cc2OC)o1,3,98,23,i,0.96,144,x
COc1cc(/C=N/NC(=O)c2nc3ccccn3c2C)cc(OC)c1O,5,96,-47,i,0.93,104,x
Cn1c(=O)n(C)c2cc(NS(=O)(=O)c3ccc(F)cc3)ccc21,-9,90,-40,i,1,76,x
O=C(Nc1ccc2c(c1)OCCO2)C1CCN(C(=O)c2ccc(Cl)cc2)CC1,-13,95,3,i,0.77,83,-1.6
Oc1ccc(Nc2nc(NCC3CCCO3)c3ccccc3n2)cc1 (centres undefined),-1,90,30,i,1.1,84,-2.9
O=C(c1ccc(F)cc1)C1CCN(S(=O)(=O)c2ccccc2)CC1,-1,109,-29,i,0.96,78,x

Screening data (PubChem BioAssay)

Compounds were not picked by outcome; any-hit rate near 1.3%.
